# From PubChem BioAssay
# TRPV1 potentiator – HTS Assay for Compounds that Act as Potentiators of the Vanilloid Receptor 1; TRPV1-expressing cells, Fluo-8 calcium influx, capsaicin EC20 potentiation; host cell line not named in the record; control for the full effect not named in the record; hit rate 0.02% among 320,000; Transient receptor potential cation channel subfamily V member 1 (Homo sapiens), Q8NER1; AID 540277, 2011; potentiation, % at 8.33 µM; active means potentiation above 80%; inconclusive means 30% to 80%; inactive means below 30%; note: 0% is about no effect
#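 TRPV1-expressing cells were cultured overnight at 35.5C and loaded with Fluo-8 calcium dye for 40 to 90 min at room temperature. After a 10 s baseline, compound was added and calcium influx was read kinetically for 3 min (ex 480/em 520 nm).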
# PINK1 expr mod – A Quantitative High throughput Screen to Identify Chemical Modulators of PINK1 Expression | PINK1 immunofluorescence, high-content cytometry, 24 h | Potency, µM (top dose mostly 76.6 µM), inactives show top-dose activation (PINK1 increase), most hits filed as activators | hit rate 0.2% among 410,000 | AID 624263, 2012; active = well fitted activation curve with a large enough effect; inconclusive = small, poorly fitted or top-dose-only effect; inactive = flat fitted curve, though single readings scatter; cell line not stated here;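 note: potency is the fitted concentration of half-maximal effect; % of control where 0% means no effect; nearly all actives have a fitted effect of over 65% in size; a mitochondrial uncoupler was the plate control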
#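 Fluorescence from anti-PINK1 antibody, together with nuclear and cell stains, was scanned on a laser-scanning cytometer. Before staining, stable-line cells were incubated 24 hours with compounds at 5 concentrations; primary antibody 12 h at 10 degrees C.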
# D2 ag – Beta-Arrestin HTS for Positive Allosteric Modulators of the Human D2 Dopamine Receptor: Agonists; AID 624465, 2012; hit rate 0.084% among 360,000; DiscoveRx PathHunter D2 beta-arrestin, luminescence, 90 min; 100% = 57 uM dopamine signal; D(2) dopamine receptor (Homo sapiens), P14416; activation, % (no concentration beside the values); in the data active = activation above about 40%; inconclusive = about 15% to 40%; inactive = below about 15%; note: compound concentration not given in the record; the text of the record calls up to 30% inactive
#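 Agonist mode: compounds alone added to overnight-plated D2 PathHunter cells for 90 min at 37 C, with 57 uM final dopamine (EC100) defining full response. Beta-arrestin recruitment detected by chemiluminescent reagent, read after 1 h at ambient temperature.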
# CtBP-E1A blk – qHTS Assay for Inhibitors of the CtBP/E1A Interaction. CtBP / adenovirus E1A interaction (AlphaScreen). AlphaScreen GST-E1A/His-CtBP binding, 1536-well; hits give low values; control for the full effect not named in the record. activity change, % (test concentration not listed). hit rate 0.49% among 340,000. AID 651724, 2012; in the data active means activity change below about -65%; inconclusive means about -30% to -65%; inactive means above about -30%; note: % is set by controls: 0 for no effect and ±100 for the full control effect; compound concentration not given in the record
#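 In 5 uL wells, 23 nL compound meets equimolar GST-E1A and His-CtBP (5X stock 125 nM each) for 2 h, 37 °C. Beads (5X, 50 ug/mL) then 1 h, 37 °C, dark.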
# Six1-Eya2 blk – qHTS Assay for Inhibitors of the Six1/Eya2 Interaction; hit rate 0.56% among 360,000; AlphaScreen GST-Six1/His-Eya2 binding, biochemical; hits give low values; control for the full effect not named in the record; activity change, % (no concentration beside the values); Homeobox protein SIX1 (Homo sapiens) + Protein phosphatase EYA2 (Homo sapiens), …; in the data active = activity change below about -65%; inconclusive = about -30% to -65%; inactive = above about -30%; note: % is set by controls: 0 for no effect and ±100 for the full control effect; compound concentration not given in the record
# Target sequence (O00167 whole entry, looked up): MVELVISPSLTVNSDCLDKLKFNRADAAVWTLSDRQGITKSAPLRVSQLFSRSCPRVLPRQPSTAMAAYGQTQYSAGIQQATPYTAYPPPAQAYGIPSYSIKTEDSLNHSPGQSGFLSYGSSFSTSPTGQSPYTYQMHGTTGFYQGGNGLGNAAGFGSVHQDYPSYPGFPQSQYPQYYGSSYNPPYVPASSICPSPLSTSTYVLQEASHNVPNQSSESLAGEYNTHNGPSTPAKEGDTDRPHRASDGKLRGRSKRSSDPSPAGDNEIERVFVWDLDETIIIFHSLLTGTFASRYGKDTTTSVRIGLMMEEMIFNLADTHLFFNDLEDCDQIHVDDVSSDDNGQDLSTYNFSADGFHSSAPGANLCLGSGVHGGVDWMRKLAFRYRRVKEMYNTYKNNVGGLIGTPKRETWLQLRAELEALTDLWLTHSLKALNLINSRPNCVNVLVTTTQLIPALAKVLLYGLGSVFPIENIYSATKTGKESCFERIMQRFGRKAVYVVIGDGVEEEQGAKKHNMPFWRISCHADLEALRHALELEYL
# Target sequence (Q15475 whole entry, looked up): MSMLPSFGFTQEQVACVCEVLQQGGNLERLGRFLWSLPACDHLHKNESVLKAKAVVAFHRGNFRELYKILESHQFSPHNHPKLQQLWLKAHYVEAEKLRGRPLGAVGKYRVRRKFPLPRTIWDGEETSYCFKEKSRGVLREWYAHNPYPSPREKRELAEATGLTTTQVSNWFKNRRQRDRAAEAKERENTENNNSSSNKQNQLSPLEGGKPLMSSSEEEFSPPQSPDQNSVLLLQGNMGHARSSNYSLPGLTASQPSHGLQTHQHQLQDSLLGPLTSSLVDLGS
#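 Compounds are tested against tagged Six1 and Eya2 proteins bridged by glutathione donor and nickel acceptor beads; after a one-hour incubation at 37 °C without light, AlphaScreen emission is recorded.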
# D2 PAM – Beta-Arrestin HTS for Positive Allosteric Modulators of the Human D2 Dopamine Receptor: Potentiators | D(2) dopamine receptor (Homo sapiens), P14416 | hit rate 0.23% among 360,000 | AID 624464, 2012 | DiscoveRx D2 beta-arrestin cells, luminescence, 90 min; 100% = 57 uM dopamine signal | potentiation, % (concentration not given with the values); active = potentiation of 50% or more; inconclusive = 30% to 50%; inactive = 30% or less;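 note: compound concentration not given in the record; tested on top of an EC20 dose of dopamine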
#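 PathHunter beta-arrestin assay in DiscoveRx D2 cells. Compounds were added with an EC20 of dopamine (50 nM final) for 90 min at 37 deg C. Luminescence was read 1 h after detection reagent, with 57 uM dopamine as the EC100 control.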
# Sfp PPTase inh – qHTS Assay for Inhibitors of Bacillus subtilis Sfp phosphopantetheinyl transferase (PPTase). Potency, µM, for the others: max response, negative = inhibition, most hits filed as inhibitors. hit rate 3.5% among 310,000. Biochemical Sfp PPTase activity, qHTS; active = well fitted inhibition curve with a large enough effect; inconclusive = small, poorly fitted or top-dose-only effect, or another doubt; inactive = no such curve, though single readings can be large or run the other way;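 note: the enzyme is Sfp with the accession as filed and its product quenches rhodamine fluorescence; potency is the fitted concentration of half-maximal effect; 0% = enzyme reaction without inhibitor and -100% = no enzyme wells; top concentration of the series not given in the record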
#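 Fluorescence-quenching assay with 15 nM Sfp, 5 uM rhodamine-CoA and 12.5 uM BHQ-2-labelled ybbR peptide in pH 7.6 Hepes/MgCl2 buffer. Enzyme was pre-incubated with compound for 15 min at room temperature. Rate was taken from the 30-min fluorescence change (525/598 nm).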
# An asterisk follows results filed as active; ? = inconclusive; . = not tested or not shown; & = joins results of further samples; [ ] = remark or other dose.
SMILES,TRPV1 potentiator,PINK1 expr mod,D2 ag,CtBP-E1A blk,Six1-Eya2 blk,D2 PAM,Sfp PPTase inh
N#Cc1c(C(F)(F)F)cc(-c2cccc(Cl)c2)[nH]c1=O,-5,1.8%,0.7,3,1,11,5%
Cc1oc2c(CN3CCCCC3C)c(O)ccc2c(=O)c1-c1ccc(Br)cc1 (stereo not given),-10,-3.1%,3.1,6,1,-9,16%
CC(=O)c1ccccc1OCCCN1CCCCC1,-6,0.3%,-3.1,0,29,-13,?
NS(=O)(=O)c1ccc(-n2nncc2-c2ccco2)cc1,25,-0.1%,0.4,2,-2,-1,15%
COc1ccc(OC)c(NC(=O)CSc2nnc3ccc(-c4ccccn4)nn23)c1,-17,2.7%,-2.3,?,-26,-14,.
C/C(=N/NC(=O)Cc1cccc2ccccc12)c1cccs1,-11,0.3%,-5.0,0,-4,-13,13%
CCOc1ccc(C)cc1S(=O)(=O)Nc1ccc(Cl)cn1,-8,0.2%[38.3 µM],-0.4,5,6,-4,13%
OC(COc1ccc(Br)cc1)Cn1ccnc1 (stereo not given),-3,3.1%,-3.4,-3,4,-5,2%
CCCC(=O)Nc1ccc(C(=O)Nc2nc(CC(=O)OCC)cs2)cc1,10,2.4%,0.0,0,-4,-8,15%
O=C(Nc1nnc(-c2ccncc2)o1)c1ccc2ccccc2c1,11,1.4%,7.9,-18,-5,1,18%
CC(C)CCNC(=O)C(NS(=O)(=O)c1ccc2c(c1)c(=O)n(C)c(=O)n2C)c1ccccc1 (stereo not given),-17,13%,-0.8,1,-8,-1,-15%
Cc1[nH]c(=O)[nH]c(=O)c1S(=O)(=O)N1CCN(c2cccc(Cl)c2)CC1,-3,-1.1%&1.4%,1.8,5,3,-3,-2%

# Next part; the last 4 above are carried over.
SMILES,TRPV1 potentiator,PINK1 expr mod,D2 ag,CtBP-E1A blk,Six1-Eya2 blk,D2 PAM,Sfp PPTase inh
CCCC(=O)Nc1ccc(C(=O)Nc2nc(CC(=O)OCC)cs2)cc1,10,2.4%,0.0,0,-4,-8,15%
O=C(Nc1nnc(-c2ccncc2)o1)c1ccc2ccccc2c1,11,1.4%,7.9,-18,-5,1,18%
CC(C)CCNC(=O)C(NS(=O)(=O)c1ccc2c(c1)c(=O)n(C)c(=O)n2C)c1ccccc1 (stereo not given),-17,13%,-0.8,1,-8,-1,-15%
Cc1[nH]c(=O)[nH]c(=O)c1S(=O)(=O)N1CCN(c2cccc(Cl)c2)CC1,-3,-1.1%&1.4%,1.8,5,3,-3,-2%
CCC(Sc1nc2ccc(N)cc2s1)C(=O)Nc1nccs1 (stereo not given),-6,.,1.1,-2,-6,-16,-5%
COc1cccc(NC(=O)CN(C)C(=O)/C=C/c2cn(-c3ccccc3)nc2-c2ccc(C)cc2)c1,-5,2.1%,3.7,-1,-15,-8,.
N=c1c(S(=O)(=O)c2ccc(Br)cc2)cc2c(=O)n3ccccc3nc2n1C1CCCCC1,?,0.0%,-3.7,6,2,0,1%
O=C(O)c1ccc(CSc2nnnn2-c2ccc(F)cc2)cc1,4,0.2%,-0.1,7,-5,-2,14%
COc1ccc(-n2c(=S)[nH]c3cc(C(=O)NCCCN4CCOCC4)ccc3c2=O)c(OC)c1,-2,0.5%,0.3,-2,-2,-11,-30%
O=C(N/N=C/C(Br)=C\c1ccccc1)c1cccs1,-5,0.8%,1.9,-81*,-11,-11,?
COc1ccc(CNCC(O)(c2ccccc2)c2ccc(Cl)cc2)cc1 (stereo not given),-15,16%,3.2,11,7,-30,11%
CN(C(=O)CSc1nnc(-c2cccs2)n1C1CC1)C1CCS(=O)(=O)C1 (stereo not given),-3,-0.5%,4.1,5,8,18,.
COc1ccc(C(=O)OCC(=O)Nc2c(C)n(C)n(-c3ccccc3)c2=O)cc1OC,-4,1.1%,5.8,2,2,-7,.
COc1ccc(C2CC(c3cccc(Cl)c3)n3nc(N)nc3N2)cc1 (stereo not given),3,0.8%,-5.1,2,-6,-2,10%
COC(=O)c1ccc(-c2noc(CN(Cc3ccncc3)CC3CCCO3)n2)cc1 (stereo not given),-3,-0.8%,0.9,11,1,-7,-1%
COCC1CCN(c2nc3nonc3nc2N2CCSCC2)C1 (stereo not given),-1,-0.2%,1.9,6,2,-9,13%
O=C(COC(=O)c1ccc(S(=O)(=O)C(F)F)cc1)Nc1cccnc1Cl,?,2.4%,-3.7,3,4,0,.
CCC(C)c1ccc(NC(=O)N2CCOCC2)cc1 (stereo not given),-24,-0.4%,3.1,3,-15,-5,14%
COc1ccc(S(=O)(=O)N(CC(=O)N2CCOCC2)Cc2ccccc2)cc1C,-25,7.9%[38.3 µM],-3.5,-4,-3,-4,-5%
CCCNC(=O)CCc1c(C)nc2c(c(C)nn2-c2ccc(C)cc2)c1C,-6,8.9%,-10,.,19,-1,20%
Cn1cccc1C(=O)NCc1ccc(Cl)cc1,?,2.6%,-1.5,-5,-11,-7,9%
Cc1ccc(-n2c(SCC(=O)NCc3ccco3)nc3c(sc4ccccc43)c2=O)cc1,-6,-1.6%,-4.5,-12,-1,3,-11%
CCn1c(SCc2nc(-c3ccc(Cl)cc3)no2)nnc1-c1ccco1,19,0.0%,0.3,-1,-5,-10,-1%
CCCS(=O)(=O)N1CCN(Cc2ccccc2[N+](=O)[O-])CC1,3,-0.7%,-2.0,2,6,-9,?
O=C(CSc1nnc(COc2cccc3ccccc23)o1)N1c2ccccc2CCc2ccccc21,3,-1.2%,-0.4,-1,-8,-15,6%
O=C(NCc1cccs1)C1CCC(=O)N(Cc2cccc(C(F)(F)F)c2)C1 (stereo not given),-2,0.6%,-0.7,-9,16,-25,8%
CN(Cc1ccccc1Cl)C(=O)CCNC(=O)c1ccco1,-15,0.9%,-2.2,-12,5,-2,.
COc1ccc(NC(=O)CS(=O)(=O)c2ccc(C)cc2)c(OC)c1,19,-0.7%,-0.6,-20,20,-1,7%

# Entries listed above shown as hits in CtBP-E1A blk.
SMILES,PINK1 expr mod,D2 ag,CtBP-E1A blk,Six1-Eya2 blk,D2 PAM,Sfp PPTase inh
O=C(N/N=C/C(Br)=C\c1ccccc1)c1cccs1,0.8%,1.9,-81*,-11,-11,?

# Next part
SMILES,TRPV1 potentiator,PINK1 expr mod,D2 ag,CtBP-E1A blk,Six1-Eya2 blk,D2 PAM,Sfp PPTase inh
CCOc1ccc(NC(=O)CN(C)C(=O)C2CCN(C(=O)Nc3ccccc3)CC2)cc1OCC,.,1.0%,0.8,-23,-7,0,.
COC(=O)Nc1nnc(CCc2ccccc2)s1,3,3.5%,-4.0,1,2,-5,6%
Cc1ccc(C)c(N2CCN(C(=O)CN(C)S(=O)(=O)c3cnc[nH]3)CC2)c1,-3,3.0%,-2.2,-2,4,1,9%
Cc1ccc([C@H]2C[C@@H](O)[C@H](n3cc(C4CC4)nn3)CN2Cc2cccs2)cc1,.,1.0%,-12,-5,1,-4,.
CCn1c(NC(=O)c2ccc(C)cc2)c2ccccc2nc1=O,-8,0.2%,-3.6,4,0,-14,22%
Cc1ccc(C2CC(=O)N(c3ccc(F)cc3)C3=C2C(=O)CCC3)cc1 (stereo not given),2,-1.8%,-1.7,7,0,-9,7%
CCOC(=O)c1ccccc1Cc1nc2ccccc2c(=O)[nH]1,4,1.9%,-2.8,2,14,-5,9%
CCCC(C(=O)NC1CCCC1)N(CC1CCCO1)C(=O)CNS(=O)(=O)c1ccccc1 (stereo not given),10,1.4%,-9.8,7,5,-7,-11%
CCCCCCn1c(N2CCC(C(N)=O)CC2)nc2c1c(=O)n(C)c(=O)n2C,-15,3.8%,-1.8,-2,-1,1,-4%
Cc1cc(C)c(C(N)=O)c(NCCc2ccccc2)n1,1,-1.5%[38.3 µM],-2.4,2,0,-12,15%
COc1ccc(CNC(=O)COc2cccnc2[N+](=O)[O-])cc1OC,-10,-2.9%,10,-7,1,-1,13%
CC(C)(CNS(C)(=O)=O)SCc1ccc(Cl)cc1,1,1.6%,3.1,-1,-7,-4,11%
Cc1ccccc1Nc1nnc(SCC(=O)c2ccc(O)cc2O)s1,-9,1.7%,2.1,-5,-5,-12,-12%
COC(=O)c1ccc(NC(=O)CSCc2ccccc2)cc1,-8,0.2%,-3.1,-1,4,0,15%
O=C1/C(=C\c2ccc(Br)cc2)SC(=S)N1NS(=O)(=O)c1ccccc1,8,1.0%,3.9,9,4,0,-17%
CCN(CC(=O)NC1CC1)S(=O)(=O)c1ccc(OC)cc1,2,0.6%,-4.2,3,2,-3,3%
CCC(C)c1ccc(N(CC(=O)NC(C)(C)C)C(=O)CNC(=O)c2cccs2)cc1 (stereo not given),15,1.9%,-4.9,5,0,-13,12%
COc1ccc(N(CC(=O)NC2CCCCCC2)S(=O)(=O)c2ccc(C)cc2)cc1OC,7,5.4%,1.1,5,4,-6,13%
CCOc1cc(C2C(C(=O)OCC(C)C)=C(C)N=C3SCCC(=O)N32)ccc1OC(C)=O (stereo not given),5,1.6%,-2.1,0,1,-9,12%
CCOc1ccccc1CNC(=O)C1Cc2cc(S(=O)(=O)N3CCCCC3)ccc2N1C(C)=O (stereo not given),4,2.1%,1.2,-3,9,-18,10%
C[C@H](CO)N1C[C@H](C)[C@@H](CN(C)S(=O)(=O)c2cccs2)Oc2c(NC(=O)c3ccncc3)cccc2C1=O,.,2.1%,-0.8,0,-2,-1,.
Cc1ccc(N(CC(=O)NC2CCCC2)C(=O)CCCC(=O)Nc2ccccn2)cc1C,-17,-0.4%,0.1,5,-1,-12,14%
CCn1c(O)c(N=NC(=S)NCC2CCCO2)c2ccccc21 (stereo not given),-12,0.4%,-5.4,.,-7,-4,4%
N#Cc1c(-c2ccccc2)cc(C2CC2)nc1SCC(=O)O,19,-2.4%,-0.8,6,1,-20,-18%
ONC(=Nc1ccccc1Cl)c1ccccc1Cl,-14,1.9%,3.0,-9,-3,-5,7%
COc1cc2nc(SCC(=O)c3ccc(Br)cc3)n3nc(C)nc3c2cc1OC,-1,7.1%,-2.2,0,-8,3,-15%
